# Sa growth 42C: inhibitors of Staphylococcus aureus growth at 42 °C. S. aureus RN4220 growth, OD600, 20 h; active compounds read low. relative growth, % (test concentration not listed). 170,000 compounds, 0.53% hits. AID 720641;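 active = growth at 42 °C up to 50% and 20 or more points under that at 30 °C, or under 10% at both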;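 note: 300 nL library stock went into each well; scaled to the means of positive and negative controls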
# GIV Gai3 FP: blocks GIV peptide binding to rat Galpha-i3; AID 1224905; Galpha-i3/FITC-GIV peptide fluorescence polarization, 90 min; active compounds read low; scaled: aluminum fluoride 0%, vehicle 100%; P08753; 210,000 compounds, 0.42% hits; percent of control (FP), % (test concentration not listed);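 active = replicate mean at 85% of control or lower, very high polarization wells dropped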;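 note: lower values mean more displacement of the GIV peptide from Galpha-i3; wells of about 15 µL received 100 nL stock; the first replicate is given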
# Target sequence (P08753 whole entry, looked up): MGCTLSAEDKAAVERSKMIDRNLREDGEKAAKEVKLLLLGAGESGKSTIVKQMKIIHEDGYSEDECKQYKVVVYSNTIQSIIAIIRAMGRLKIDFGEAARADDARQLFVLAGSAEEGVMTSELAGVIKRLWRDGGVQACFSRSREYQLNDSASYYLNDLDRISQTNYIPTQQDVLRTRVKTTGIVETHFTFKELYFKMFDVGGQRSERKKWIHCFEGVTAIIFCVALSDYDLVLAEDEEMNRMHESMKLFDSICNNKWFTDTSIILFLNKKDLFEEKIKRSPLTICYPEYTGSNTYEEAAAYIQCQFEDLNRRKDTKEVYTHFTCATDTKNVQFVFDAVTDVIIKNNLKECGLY
# HCMV UL50-53 inh: inhibitors of HCMV UL50-UL53 nuclear egress complex interaction. inhibition, % (test concentration not listed). HTRF UL50-UL53 interaction, normalized percent inhibition. 190,000 compounds, 0.15% hits;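 active = both replicates at 50% or more, plus weaker picks with an unusually low signal ratio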;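 note: stock transfer was 100 nL into about 20 µL; 0% = negative control wells and 100% = wells with untagged competitor protein; inactives centre near -12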
# Sa growth 42C second temp: also measured in Sa growth 42C; calls as there; relative growth, %; measured here: growth at 30 °C;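 optical density after 20 h as mean of two plates; 100% = untreated growth and lower means inhibition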
# Starred values were filed as active, the others as inactive; . = no result given; & = joins results of further samples.
SMILES,Sa growth 42C,Sa growth 42C second temp,GIV Gai3 FP,HCMV UL50-53 inh
COC(=O)c1scc(-c2ccc(C)cc2)c1S(=O)(=O)Nc1cccc(C(F)(F)F)c1,92,98,96,.
Cc1cc(C(Nc2ccccn2)c2cccnc2)c(NC(=O)c2ccccc2)s1 (stereo not given),.,.,107,-39
Cc1ccc(C2C=C(c3ccc(Cl)cc3)Nc3nc(NS(=O)(=O)c4ccccc4)nn32)cc1 (stereo not given),128,84,134&105,-59&-18
CC(C)(O)C#Cc1ccc(C(=O)NCc2ccccc2)s1,95,86,104,-4
Cc1cc(C(=O)Nc2ccc(CN3CCS(=O)(=O)CC3)cc2)no1,89,81,105,-27
Cc1ccc(C)c(OCc2cc(=O)n3ccsc3n2)c1,.,.,96,-20
CCn1c(O)c(/C=C2\C=C(C)N=C2C)c(=O)[nH]c1=S,90,95,239,-27
CC(C)CCNC(=O)c1csc2c1CCCC2,114,94,109,.
Cc1ccccc1CN1CCC(O)CC1,106,62,107,7
CCc1nc(N2CCOCC2)c2onc(-c3ccc(C)cc3)c2n1,.,.,104,-26
CCOc1ccc(NC(=O)c2c(NCc3cccc(OC)c3OC)sc3c2CCC3)cc1,86,91,103,.
COc1ccc(NC(=O)C2=C(C)Nc3ncnn3C2c2ccc(C)o2)cc1 (stereo not given),90,90,99,.
O=C(CCSCc1ccc(Cl)cc1)Nc1ccc(F)cc1,122,101,.,6
CC(=O)Nc1cccc(NC(=O)C(=O)NCCc2csc3nc(-c4ccccc4F)nn23)c1,81,90,109,.
COc1ccc(N2CN=c3s/c(=C\C=C\c4ccccc4)c(=O)n3C2)cc1OC,94,82,106,-38
C#CCn1c(=NC(=O)C2COc3ccccc3O2)sc2cc(Br)ccc21 (stereo not given),87,74,106,-3
CCOc1cc(C2Nc3ccccc3NC3=C2C(=O)CC(c2ccc(OC)cc2)C3)ccc1OC(C)=O (stereo not given),.,.,103,-9
O=C1c2ccccc2CCC1(CO)CO,.,.,99,-9
Cc1nc2ccc(S(=O)(=O)NC(C(=O)N3CCN(c4ccc(Cl)cc4)CC3)C(C)C)cc2s1 (stereo not given),102,88,104,-40
CCOC(=O)C1CCN(C(=O)Cn2c(-c3cccs3)cc3cc(Cl)ccc32)CC1,126,91,101,.

# Just HCMV UL50-53 inh, Sa growth 42C and GIV Gai3 FP (two entries from above):
SMILES | HCMV UL50-53 inh | Sa growth 42C | GIV Gai3 FP
Cc1cc(C(Nc2ccccn2)c2cccnc2)c(NC(=O)c2ccccc2)s1 (stereo not given) | -39 | . | 107
Cc1ccc(C2C=C(c3ccc(Cl)cc3)Nc3nc(NS(=O)(=O)c4ccccc4)nn32)cc1 (stereo not given) | -59&-18 | 128 | 134&105

# Additional entries.
SMILES,Sa growth 42C,Sa growth 42C second temp,GIV Gai3 FP,HCMV UL50-53 inh
Cc1nc(Nc2ccccc2)nc2c1ncn2-c1ccccc1,95,93,99,-5
CCCC(=O)Nc1nnc(SCc2cc(=O)n3cccc(C)c3n2)s1,96,92,105,.
CCc1cc(-c2n[nH]c(C(=O)O)c2-c2nc(C)cs2)c(O)cc1O,65,66,98,1
O=C(O)COc1ccc2nsnc2c1,94,84,102,-102
CCOc1cccc(=NC2CCCCC2)c2c(C)n(C)c(C)c12,120,59,109,.
COc1ccc2cc3cc(C(=O)NCCC4=CCCCC4)sc3nc2c1,97,78,102,.
CC1CN(C(=O)c2ccncc2)CC(C)O1 (stereo not given),104,104,107,21
COc1ccc(CN2CCCC2C(=O)Nc2ccc(OC)c(OC)c2)cc1OC (stereo not given),101,110,98,1
O=S(=O)(NC1CCN(Cc2ccccc2)CC1)c1ccc(-n2cccn2)cc1,102,88,111,-17
c1cn2cc(-c3ccc4c(c3)OCO4)nc2s1,115,53,98,-1
CC(=O)Nc1ccc(OCc2ccccc2)cc1,99,88,.,2
CCOC(=O)c1ccccc1NC(=O)c1c2c(nc3ccccc13)C(=O)N(C1CCCCC1)C2,101,87,99,.
CCOC(=O)CCc1c(C)n(CC)c2cc(-c3ccccc3OC)nn2c1=O,122,93,106,-7
O=S(=O)(c1ccc(Cl)c(Cl)c1)N1CCSCC1,87,88,102,-18
COC(=O)c1csc2c(C(F)(F)F)cc(=O)[nH]c12,95,93,96,-20
O=C(CN(C(=O)c1csnn1)c1ccccc1)NCc1ccc2c(c1)OCO2,106,78,106,-9
CCOC(=O)c1ccc2nc(C(F)(F)F)nc(N3CCc4ccccc4C3)c2c1,78,78,98,-35
NS(=O)(=O)c1ccc(NC(=O)c2ccc3c(c2)CCCN3S(=O)(=O)c2ccccc2)cc1,.,.,101,-1
N#Cc1ccc(C#CCOC(=O)c2ccccc2)cc1,94,86,107,-43
Clc1cccc(-c2ccc(CNCCCn3ccnc3)o2)c1,.,.,109,-33
NC(=O)CSc1ncnc2c1cnn2-c1ccccc1,102,74,102,2
Cc1cccc(CSc2nc(=O)n(CC3CCCO3)c3c2CCC3)c1 (stereo not given),.,.,103,-19
COc1ccc(C(CNC(=O)c2ccccc2)N2CCCC2)cc1 (stereo not given),94,96,106,2
CN(C)S(=O)(=O)c1ccc(N2CCOCC2)c(C(=O)Nc2ccc3c(c2)OCCO3)c1,76,97,.,-16
COC(=O)c1sccc1N/C=C(\C#N)S(=O)(=O)c1cccs1,116,90,108,1
O=C(NC12CC3CC(CC(C3)C1)C2)c1cncc(O)c1,95,72,105,-11
O=C(O)CC(NS(=O)(=O)c1cccc2nsnc12)C(=O)O (stereo not given),110,111,104,-46
COc1ccc(C(=O)Nn2c(-c3cc(OC)c(OC)c(OC)c3)nc3ccccc3c2=O)cc1[N+](=O)[O-],.,.,107,-18
C=CCN1C(=O)CC(N2CCOCC2)C1=O (stereo not given),121,94,107,-33
CCOc1cc2c(cc1OCC)C(CC(=O)O)N(C(=O)Nc1ccc(OC)cc1)CC2 (stereo not given),96,90,109,-16
S=c1[nH]nc(-c2cccs2)n1C1CCCCC1,92,78,104,-9
O=S(=O)(c1ccccc1)N1CCn2cccc2C1c1ccccc1 (stereo not given),91,90,104&99,-20
Cc1ccc(/C=C/C(=O)Nc2ccc(Cl)cc2Cl)cc1,99,88,97,.
CC(=O)c1ccc(NC(=O)CN(C)S(=O)(=O)c2cc3c(cc2C)NC(=O)CO3)cc1,114,81,97,.
CSc1nnc(-c2csc(S(=O)(=O)Nc3cccc(C(F)(F)F)c3)c2)n1C,94,85,101,-25
CCOc1ccc(NC(=O)N2CCN(Cc3nc4cc(C(=O)N5CCCC5)ccc4o3)CC2)cc1,.,.,104,-30
COc1ccc(F)cc1S(=O)(=O)NCC1COC2(CCCCC2)O1 (stereo not given),93,85,103,-39
Cc1ccc(NC(=O)/C(C#N)=N/Nc2ccc(S(=O)(=O)N3CCOCC3)cc2)c(C)c1,83,73,.,-28
CC(C)=NNC(=O)c1cccc2cc[nH]c12,100,95,106,4
COc1ccc(CCNC(=O)C(=O)NCC(c2cccs2)S(=O)(=O)c2ccc(F)cc2)cc1 (stereo not given),127,74,98,.
O=C(Cn1c2c(c(-c3ccccc3Cl)cc1=O)CCC2)NCCCN1CCOCC1,93,88,103,-9
COC(=O)c1cccc(CN2C(=O)SC(Nc3ccc(Br)cc3)C2=O)c1 (stereo not given),110,77,99,1
Cc1ccc(C2=Nc3ccccc3N(CC(=O)Nc3ccccc3C)C(=O)C2)cc1C,98,97,99,.
CC(C)(O)c1cc(=N)sc2nc3ccccc3n12,106,79,104,-7
O=C(OC1CCc2ccccc2C1=O)c1ccc(O)cc1 (stereo not given),101,66,101,-18
COc1ccc(NC(=O)NCCCN2CCCc3ccccc32)c(OC)c1,79,74,101,-24
O=S(=O)(NN1CCOCC1)c1cc(S(=O)(=O)c2ccccc2)cs1,109,87,103,-32
CCN(Cc1ccccc1)C(=O)c1cc2c(s1)-c1ccc(Cl)cc1SC2,108,89,104,.
COc1cc(/C=C/C(=O)N2CCC(c3nc4ccccc4o3)CC2)cc2c1OCCO2,94,95,.,-36
COC(=O)C(C(=O)OC)=C(SC)SC,96,92,107,-7
O=C(OC1CCOC1=O)c1c2c(nc3ccccc13)CCCCC2 (stereo not given),106,104,.,2
COc1ccc(Cl)cc1Nc1sc(C(=O)c2ccccc2)c(N)c1C(=O)Nc1ccccc1,77,92,103,.
N#Cc1ccc(NC(=O)CONC2=NCCCCC2)cc1,116,88,.,-3
COc1cccc(C(O)c2nccn2C)c1OC (stereo not given),113,91,98,.
Cc1cccc(-c2nc3scc(CCNS(=O)(=O)c4ccc(F)c(C(F)(F)F)c4)n3n2)c1,112,86,97,.
CC1=C(C(=O)Nc2ccc(C(=O)NCc3cccnc3)cc2)SCCO1,89,96,108,-11
CCOC(=O)C1CCN(C(=O)c2ccc3c(=O)n4nc(Nc5ccccc5OC)sc4nc3c2)CC1,96,101,101,6
Cc1noc2nc(C(F)(F)F)[nH]c(=O)c12,107,92,.,-6
Cc1ccc(S(=O)(=O)N/N=C2/CSCC2NC(=O)c2ccccc2)cc1 (stereo not given),101,84,108,-23
Cc1ccccc1-c1nn2c(=O)cc(N3CCN(C(=O)Nc4cccc(F)c4)CC3)nc2s1,.,.,88,-13

# Continued:
SMILES,Sa growth 42C,Sa growth 42C second temp,GIV Gai3 FP,HCMV UL50-53 inh
CS(=O)(=O)Nc1cccc(C2=NN(C(=O)CCCC(=O)O)C(c3ccc(F)cc3)C2)c1 (stereo not given),.,.,102,-54
Cc1ccc(C2/C(=C(\O)c3ccc(Br)cc3)C(=O)C(=O)N2CCCN(C)C)cc1 (stereo not given),98,89,96,.
CCc1ccc(S(=O)(=O)Nc2cccc(-c3ccc(N4CCCCC4)nn3)c2)s1,112,94,104,.
COc1cccc(Cn2c(=O)n(-c3cccc(Cl)c3C)c(=O)c3c4c(sc32)CN(C(C)=O)CC4)c1,88,84,106,.
CCCNC(=O)c1cc(-c2cccnc2)nc2ccccc12,117,89,109&105,-42&-54
CCC(=O)c1ccc(OCC(=O)NCCCN2CCCC2=O)cc1,73,85,.,-35
CCOC(=O)c1ccc(N2C(=O)Cc3ccccc3C2=O)cc1,114,92,.,-8
O=C(CN1CCC(C(=O)O)CC1)Nc1ccccc1Oc1ccccc1,84,89,101,-23
CCOC(=O)c1c(C)[nH]c(C)c1S(=O)(=O)NCC(=O)N1c2ccccc2CC1C (stereo not given),.,.,105,-5
CSc1cccc(NC(=O)CSc2nnc(COc3ccccc3)o2)c1,108,111,107,-9
C=Cn1c(C)c(C(C#N)=C(C#N)C#N)c2c1CCCC2,63,45,106,10
NS(=O)(=O)c1ccc(CCNC(=O)CCC(=O)N2CCOc3ccc(Cl)cc32)cc1,.,.,101,-14
C=C(C)Cn1c(SCCC(=O)OC)nc2sc3c(c2c1=O)CC(C)(C)OC3,.,.,111,3
COC(=O)c1cc2ccc3c(c2oc1=O)CN(c1ccccc1)CO3,94,95,99,-45
Cc1cccc(-n2c(Sc3nnnn3-c3ccccc3)nc3ccccc3c2=O)c1C,104,85,.,-16
CCOC(=O)c1c(S(=O)(=O)NCC(=O)N(C)Cc2ccccc2)c(C)n(C)c1C,99,88,103,.
Nc1[nH]c(=S)sc1C(=O)Nc1nccs1,73,61,.,-53
COc1cccc(/C=N/O)c1O,100,71,98,-14
Cc1ccc(S(=O)(=O)C2(C(=O)Nc3ccc(C)c(Cl)c3)CC2)cc1,99,77,100,-5
CC(C)C(C(C#N)C#N)C1C(=O)NC(=S)NC1=O (stereo not given),96,90,.,1

# 14 successive records already listed:
SMILES,Sa growth 42C,Sa growth 42C second temp,GIV Gai3 FP,HCMV UL50-53 inh
COC(=O)c1scc(-c2ccc(C)cc2)c1S(=O)(=O)Nc1cccc(C(F)(F)F)c1,92,98,96,.
Cc1cc(C(Nc2ccccn2)c2cccnc2)c(NC(=O)c2ccccc2)s1 (stereo not given),.,.,107,-39
Cc1ccc(C2C=C(c3ccc(Cl)cc3)Nc3nc(NS(=O)(=O)c4ccccc4)nn32)cc1 (stereo not given),128,84,134&105,-59&-18
CC(C)(O)C#Cc1ccc(C(=O)NCc2ccccc2)s1,95,86,104,-4
Cc1cc(C(=O)Nc2ccc(CN3CCS(=O)(=O)CC3)cc2)no1,89,81,105,-27
Cc1ccc(C)c(OCc2cc(=O)n3ccsc3n2)c1,.,.,96,-20
CCn1c(O)c(/C=C2\C=C(C)N=C2C)c(=O)[nH]c1=S,90,95,239,-27
CC(C)CCNC(=O)c1csc2c1CCCC2,114,94,109,.
Cc1ccccc1CN1CCC(O)CC1,106,62,107,7
CCc1nc(N2CCOCC2)c2onc(-c3ccc(C)cc3)c2n1,.,.,104,-26
CCOc1ccc(NC(=O)c2c(NCc3cccc(OC)c3OC)sc3c2CCC3)cc1,86,91,103,.
COc1ccc(NC(=O)C2=C(C)Nc3ncnn3C2c2ccc(C)o2)cc1 (stereo not given),90,90,99,.
O=C(CCSCc1ccc(Cl)cc1)Nc1ccc(F)cc1,122,101,.,6
CC(=O)Nc1cccc(NC(=O)C(=O)NCCc2csc3nc(-c4ccccc4F)nn23)c1,81,90,109,.

# Next structures follow:
SMILES,Sa growth 42C,Sa growth 42C second temp,GIV Gai3 FP,HCMV UL50-53 inh
COc1ccccc1CNC1CCCCC1C (stereo not given),100,102,101,9
COc1cccc(CNC(=O)CCc2c(C)c3cc4c(C)coc4cc3oc2=O)c1,110,83,100,-21
C=CS(=O)(=O)C(C)CC(N)=O (stereo not given),104,96,.,5
Cn1c(=O)c2c(nc(SCC(=O)NC(c3ccccc3)c3ccccc3)n2C)n(C)c1=O,101,92,99,0
c1ccc2[nH]c(C3CCCO3)nc2c1 (stereo not given),114,94,107,0

# Assay outcomes as filed in PubChem BioAssay.

# Compounds were not picked by outcome; any-hit rate near 0.83%.
